Source: PubChem
CBX7 inh = CBX7 chromodomain binding inhibitors, primary screen, biochemical, AlphaScreen | normalised signal (fraction of DMSO) (concentration not given with the values) | AlphaScreen His6-CBX7 / biotin-H3K27me3 peptide binding; active compounds read low | Chromobox protein homolog 7 (Homo sapiens), O95931 | 1.1% of 66,000 active; in the data active = normalised signal below about 0.5;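 also: 100 nL library stock added to about 20 µL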
Target sequence (O95931 whole entry, looked up): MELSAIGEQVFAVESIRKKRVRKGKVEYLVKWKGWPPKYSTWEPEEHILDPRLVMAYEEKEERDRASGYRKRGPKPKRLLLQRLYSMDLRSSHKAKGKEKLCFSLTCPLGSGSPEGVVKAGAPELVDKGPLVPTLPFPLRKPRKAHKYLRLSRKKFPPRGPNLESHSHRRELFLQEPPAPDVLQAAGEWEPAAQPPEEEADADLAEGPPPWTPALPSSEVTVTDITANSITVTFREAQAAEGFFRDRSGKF
CBX7 inh z-score = also measured in CBX7 inh; calls as there; z-score; measured here: z-score of CBX7 signal; some inactives read as strong as hits; reference of the scale not given here;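 same signal on another scale; lower means less binding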
The depositor's hits bear a star. An excerpt, so the mix of outcomes need not match the whole.

SMILES	CBX7 inh	CBX7 inh z-score
COc1ccc(C(=O)Nc2ccc3oc(-c4ccc5ccccc5c4)nc3c2)cc1Br	1	1.1
CCOc1ccccc1NC(=O)c1c(NCc2sccc2C)sc2c1CCC2	1	0.4
CCN(c1ccccc1)S(=O)(=O)c1ccc2[nH]cc(C(=O)N3CC(C)CC(C)C3)c(=O)c2c1 (configuration not stated)	0.93	-1.1
Cc1ccc(C(=O)NCCN2CCC(C)CC2)cc1NC1=NC2CS(=O)(=O)CC2S1 (configuration not stated)	1.1	1.5
COC(=O)c1c(NC(=O)COc2ccc(Cl)cc2C)sc2c1CCCC2	0.95	-0.57
CCc1cccc(NC(=O)C(NS(=O)(=O)c2cccs2)C(C)C)c1 (configuration not stated)	1.1	0.85
CCOC(=O)c1[nH]c2ccc(Cl)cc2c1CCN1C(=O)c2ccccc2C1=O	0.98	-0.62
Cc1oc(-c2cccc(Br)c2)nc1CN1CCC(C(=O)NCC2COc3ccccc3O2)CC1 (configuration not stated)	0.92	-0.11
CCCCCCNC(=O)CCc1c(C)nc2cc(-c3ccccc3OC)nn2c1C	0.87	-2.2
CC1=Nc2cc(C(=O)NC(C)c3ccc4c(c3)OCCO4)ccc2Sc2ccc(Cl)cc21 (configuration not stated)	0.89	-2.7
CC1CCN(C(=O)CN2C(=O)CSc3ccc(S(=O)(=O)N4CCOCC4)cc32)CC1	1	1.1
CCc1nc(N2CCCCC2)c(C#N)c2c1CCCC2	0.84	-1.7
O=C(CSc1ccc2ccccc2n1)Nc1nsc(-c2ccc(Cl)cc2)n1	0.86	-2.2
Cc1c(C(=O)Nc2ccc(F)c(Cl)c2)oc2ccc(S(=O)(=O)N3CCCC3)cc12	0.98	-0.28
COc1ccc(-n2c(Cc3cc(=O)[nH]c(=O)[nH]3)nnc2SCC(=O)c2ccccc2)cc1	1	0.031
COc1ccc(-n2nnc3c(=O)n(Cc4c(F)cccc4Cl)cnc32)cc1	0.95	-0.95
Cc1cc(NC(=O)CCc2c(C)nc3cc(-c4cccc(F)c4)nn3c2C)ccc1Br	1	1.3
COc1cc(Cl)c(C)cc1NC(=O)c1n[nH]c(=O)c2ccccc12	1	0.38
CCOC(=O)c1c(NC(=O)COc2cccc(Cl)c2)sc(C)c1C	1	0.76
Cc1ccccc1-c1nc(CN2CCC(C(=O)NCCCN3CCCC(C)C3)CC2)c(C)o1 (configuration not stated)	1.9	7.8
CC(C)(C)C(=O)NCCc1nc2ccccc2n1Cc1ccccc1F	1	-0.0046
N#CCCN(C(=O)Cn1nc(Cc2cccnc2)c2ccccc2c1=O)c1ccccc1	1	0.022
O=C(Nc1ccc(Br)cc1)C1CCN(S(=O)(=O)c2cccnc2)CC1	1	1
CCS(=O)(=O)CCCCc1nnc(NC(=O)Nc2cccc(C(F)(F)F)c2)s1	1	1.4
Cc1ccc(NC(=O)CSc2nc(-c3ccc4c(c3)OCO4)cn2-c2cccc(Cl)c2)cc1	0.98	-0.22

Profiles, looked up by structure. Values in the order: CBX7 inh, CBX7 inh z-score
CCOc1ccccc1NC(=O)c1c(NCc2sccc2C)sc2c1CCC2 in the list: 1, 0.4
Cc1ccc(NC(=O)CSc2nc(-c3ccc4c(c3)OCO4)cn2-c2cccc(Cl)c2)cc1 in the list: 0.98, -0.22
COc1ccc(-n2nnc3c(=O)n(Cc4c(F)cccc4Cl)cnc32)cc1 in the list: 0.95, -0.95
CC1CCN(C(=O)CN2C(=O)CSc3ccc(S(=O)(=O)N4CCOCC4)cc32)CC1 in the list: 1, 1.1
Cc1ccc(C(=O)NCCN2CCC(C)CC2)cc1NC1=NC2CS(=O)(=O)CC2S1 (configuration not stated) in the list: 1.1, 1.5

The listing continues.
SMILES	CBX7 inh	CBX7 inh z-score
Cn1c(C(=O)N2CCCC(C(=O)NCCCN3CCCC3)C2)cc2sccc21 (configuration not stated)	0.99	-0.18
CC1CCN(S(=O)(=O)c2ccc3[nH]c(=O)cc(C(=O)NCCCN4CCOCC4)c3c2)CC1	0.97	-0.51
CCCCN(CC)Cc1c(C)[nH]c2ccc(C)cc2c1=O	0.99	-0.13
O=C(CN1N=C(c2ccc(Cl)cc2)CCC1=O)NCCCN1CCOCC1	1.1	1.4
CCCCCNC(=O)c1ccc2c(c1)ncn2-c1ccc(C)cc1C	0.74	-4.5
Cc1ccc(S(=O)(=O)Nc2nc3ccccc3nc2Nc2ccc(F)cc2)cc1	1	0.37
Cc1ccc(C)c(Cn2c(C3CC(=O)N(c4ccccc4)C3)nc3ccccc32)c1 (configuration not stated)	0.86	-1.5
O=C1CCc2cc(S(=O)(=O)NC(C(=O)NCc3ccc4c(c3)OCO4)c3ccccc3)ccc2N1 (configuration not stated)	1	0.3
Cn1cc(CC(=O)Nc2ccc(F)cc2)c2ccccc21	0.87	-1.9
Cc1ccc2c(c1)-c1c(cnn1CC(=O)Nc1ccc(F)cc1Cl)CO2	1.1	2.6
Cc1nc2cc(C(=O)NCc3ccccn3)ccc2n1-c1ccc(Br)cc1	0.95	-0.56
O=C(NCCc1c[nH]c2ccccc12)c1cc2c(s1)-c1ccccc1OC2	0.76	-3.3
CCc1cccc(NC(=O)c2cc3c(s2)-c2ccccc2OC3)c1	1	0.37
O=C1CCc2cc(S(=O)(=O)NCCC(=O)NC(c3ccccc3)c3ccccc3)ccc2N1	1	-0.02
CCCCCCCNC(=O)c1c[nH]c2ccc(S(=O)(=O)N(CC)CC)cc2c1=O	0.99	-0.24
Cc1ccc(-c2nnc(Nc3ccc(C(=O)N(C)C)cc3)c3ccccc23)cc1S(=O)(=O)N(C)C	1	0.24
COc1ccc(C)cc1Nc1nc2ccccc2nc1-n1nc(C)cc1C	1.5	12
CC1CCCC(NC(=O)C2(C)CCC(=O)N2C(C)c2ccccc2)C1C (configuration not stated)	1.1	0.82
CCOc1cc2c(cc1OCC)C(c1cc(Cl)cc(Cl)c1O)NCC2 (configuration not stated)	0.86	-2.4
Cc1ccc(-c2nc(CS(=O)(=O)CC(=O)NC3CCCCC3C)c(C)o2)cc1 (configuration not stated)	0.99	-0.028
Cc1ccn2c(=O)c(C(=O)Nc3cc(Cl)ccc3C)cnc2c1	1	0.55
Cc1ccc(-c2cc(C(=O)NC3CC3)c3ccccc3n2)cc1C	1	0.2
COCCCNC(=O)c1ccc2nc(N3CCC(C)CC3)sc2c1	1.1	2.8
CCCN1Cc2cccc(C(=O)Nc3c(C)cccc3C)c2C1=O	0.98	-0.31
CC(=O)N1CCc2cc(S(=O)(=O)NC(C(=O)N3CCCC(C)C3)C(C)C)ccc21 (configuration not stated)	0.87	-2.5

Ordered by the number under CBX7 inh z-score (descending): three from the list above.
| canonical_smiles | CBX7 inh z-score |
| --- | --- |
| O=C(Nc1ccc(Br)cc1)C1CCN(S(=O)(=O)c2cccnc2)CC1 | 1 |
| CCCN1Cc2cccc(C(=O)Nc3c(C)cccc3C)c2C1=O | -0.31 |
| CC(=O)N1CCc2cc(S(=O)(=O)NC(C(=O)N3CCCC(C)C3)C(C)C)ccc21 (configuration not stated) | -2.5 |

Remaining list, next part
SMILES	CBX7 inh	CBX7 inh z-score
Cc1oc(-c2ccc(Cl)cc2)nc1C(=O)NCc1ccccc1	1	0.64
Fc1ccc(-c2nnn(Cc3cccc(F)c3)n2)cc1	1.1	0.15
Cc1ccc(Cl)cc1N1CCN(CCCNC(=O)Nc2ccc(Cl)cc2)CC1	1	0.24
Cc1nc2cc(C(=O)NCc3cccnc3)ccc2n1-c1ccc(F)cc1F	1.1	2.7
O=C(CN1CCN(Cc2ccc(F)cc2)C1=O)NC1CCCCCC1	1	0.44
CC1(C)OC2OC(C(=O)Nc3ccc(F)cc3F)C3OC(C)(C)OC3C2O1 (configuration not stated)	1	0.37
CN(C)c1ccc(NC(=O)Cn2c(SCc3cccc(F)c3)nc3ccncc32)cc1	0.82	-1.9
Cc1cccc(NC(=O)Cn2cnc3c(nnn3Cc3ccc(F)cc3)c2=O)c1	1.1	1.3
CCc1ccc(CN(C(=O)c2ccccc2F)C2CCS(=O)(=O)C2)cc1 (configuration not stated)	0.86	-0.14
O=C(C1CCN(c2nc3ccccc3n2Cc2ccc(F)cc2)CC1)N1CCOCC1	0.8	-2.3
O=C(NCCN1CCOCC1)c1cnn(-c2ccccc2)c1-n1cccc1	1	1.8
CCCC(=O)Nc1ccc(-c2nc3cc(C)c(C)cc3o2)cc1	1.1	1.8
COc1cc2c(cc1OC)C1(CCCC1)CNC2CO (configuration not stated)	1.1	1
CCc1ccccc1NC(=O)C1CCN(c2nnc(-n3cccc3)s2)CC1	1	0.94
CCn1c(=O)cc(OCC(=O)Nc2ccc(Cl)cc2)c2ccccc21	1.1	1.5
O=C(NCCc1ccc(Cl)cc1)c1cc2c(s1)CS(=O)(=O)C2	0.98	-0.3
CC(C)c1ccc2oc(-c3ccc(NC(=O)COc4ccccc4)cc3)nc2c1	0.98	-0.48
Cc1cc(C)n2nc(CC(=O)NCCc3ccccc3Cl)nc2n1	1	1.4
CN(C)CCCNC(=O)c1cc(-c2ccc3c(c2)OCO3)nc2ccccc12	1	0.81
CCOC(=O)c1cccc(NC(=O)C2(S(=O)(=O)c3ccc(C)cc3)CC2)c1	1.1	0.65
O=C(CSc1oc(-c2ccccc2)nc1S(=O)(=O)c1ccc(Cl)cc1)NCC1CCCO1 (configuration not stated)	0.96	-0.32
COc1ccc(C2(CNC(=O)C3COc4ccccc4O3)CCCC2)cc1OC (configuration not stated)	0.94	-1.6
O=C(Nc1cccc(C(F)(F)F)c1)C1CCCN1S(=O)(=O)c1cccc2cccnc12 (configuration not stated)	0.96	-0.32
O=C(CN1CCN(Cc2ccc(Cl)cc2)C1=O)NC1CCCCC1	1	0.29
O=C(Nc1nnc(-c2ccc(Cl)s2)o1)c1ccc(S(=O)(=O)N2CCCCC2)cc1	0.16*	-9.5*

A second format for some results above:
Each structure is followed by: CBX7 inh	CBX7 inh z-score
O=C(CN1CCN(Cc2ccc(Cl)cc2)C1=O)NC1CCCCC1
→ 1	0.29
O=C(Nc1nnc(-c2ccc(Cl)s2)o1)c1ccc(S(=O)(=O)N2CCCCC2)cc1
→ 0.16*	-9.5*

Further structures
SMILES	CBX7 inh	CBX7 inh z-score
O=C(NCCCN1CCOCC1)c1cc(-c2cccc(O)c2)on1	0.99	-0.17
Cc1cccc(-c2noc(-c3ccc(C(C)(C)C)cc3)n2)c1	1.3	6.2
Cc1ccc(Cn2c(SCc3ccccc3F)nc3ccncc32)cc1	0.99	-0.36
Cc1nccc2[nH]c(=O)c(C(=O)NCCN(CC(C)C)CC(C)C)cc12	1.1	0.41
Cc1ccc(-c2noc(CSc3nnc(C)n3-c3ccccc3)n2)cc1	1.1	2.8
CCC(CO)NC(=O)c1cc2c(n(-c3ccc(C)cc3)c1=O)CCCC2=O (configuration not stated)	1.1	2.6
CCOC(=O)C1CCCN(c2c(N3CCN(c4cccc(Cl)c4)CC3)c(=O)c2=O)C1 (configuration not stated)	0.98	-0.58
Oc1ccccc1-c1nc(-c2cccc(Cl)c2)c(-c2ccccc2)[nH]1	0.55	-0.45
CCc1ccc(CNc2ccc3c(c2)ncn3C)cc1	0.53	-13
Cc1ccc2nc(NS(=O)(=O)c3ccc(Cl)cc3)c(Nc3ccc(C(=O)O)cc3)nc2c1	0.97	-0.46
Cc1c(C(=O)N2CCCCCC2)oc2ccc(S(=O)(=O)N3CC(C)CC(C)C3)cc12 (configuration not stated)	0.68	-3.2
Cc1ccc(NC(=O)c2cc3c(s2)-c2ccccc2OC3)nc1	1.1	1.5
CCOC(=O)c1cnc2c(Cl)c(Cl)ccc2c1N1CCN(C)CC1	1	0.5
Cc1cccc(-c2nc(CSCC(=O)N3CCOCC3)c(C)o2)c1	1	0.19
CC(C)c1ccc(OCC(O)CN2C(=O)NC(C)(C)C2=O)cc1 (configuration not stated)	1.2	0.46
Cc1ccc(S(=O)(=O)Nc2ccc(-c3nc4ccccc4[nH]3)cc2)cc1	0.83	-3.6
O=C(Nc1ccc2oc(-c3cccc(F)c3)nc2c1)c1cccc(F)c1	0.99	-0.66
CC(c1ccccc1)C1CC(=O)N(c2ccc(Cl)c(Cl)c2)C1=O (configuration not stated)	1.1	2.8
COc1ccc(-c2nc(CN3CCC(C(=O)NCc4ccccc4Cl)CC3)c(C)o2)cc1OC	1.1	1.7
CCN1CCN(c2cc(C)c3cc(NC(=O)c4cc(OC)cc(OC)c4)ccc3n2)CC1	0.81	-1.3
Cc1ccc2c(c1)Oc1cc([N+](=O)[O-])cc(Oc3cccc(Cl)c3Cl)c1C(=O)N2	0.2*	-15*
O=C(CN1C(=O)CCSc2ccccc21)NCCCN1CCN(C2CCCCC2)CC1	1.1	2
Cc1cc(C)nc(NS(=O)(=O)c2ccc(NC(=O)c3ccc(Br)cc3)cc2)n1	1.1	0.65
CCn1c(C(O)c2ccc(OCc3ccccc3)cc2)nc2ccccc21 (configuration not stated)	0.91	-2
O=C(Cn1c2c(c(-c3ccccc3Cl)cc1=O)CCC2)NCCC1=CCCCC1	0.61	-5.4

Next part.
SMILES	CBX7 inh	CBX7 inh z-score
COC(CNC(=O)CCc1c(C)nc2cc(-c3ccc(Cl)cc3)nn2c1C)OC	0.99	-0.13
CCOc1ccccc1CNC(=O)c1cc(-c2cccs2)nc2ccccc12	1.1	2.6
COc1ccccc1-c1cc(=O)n(CC(=O)N2CCOCC2)c2c1CCCC2	0.96	-0.85
COc1ccc(-c2cn3c(C)c(C(=O)NCC(C)C)sc3n2)cc1	0.92	-1.4
COc1ccc2cc(CCNC(=O)c3c(-c4ccccc4Cl)noc3C)c(=O)[nH]c2c1	0.98	-0.4
CCc1ccc(OCC(=O)Nc2cccc(-c3nc4ccccc4o3)c2)cc1	0.95	-1
CN1Cc2c(N3CCOCC3)nc(SCc3ccccc3)c(C#N)c2CC1(C)C	0.96	-1.1
O=C1CC(c2ccc(Cl)c(Cl)c2)c2cc3c(cc2N1)CCC3 (configuration not stated)	1.1	2.1

Three compounds from above, sorted by count of non-hydrogen atoms, low to high:
SMILES	CBX7 inh	CBX7 inh z-score
CCOc1ccccc1CNC(=O)c1cc(-c2cccs2)nc2ccccc12	1.1	2.6
CN1Cc2c(N3CCOCC3)nc(SCc3ccccc3)c(C#N)c2CC1(C)C	0.96	-1.1
COc1ccc2cc(CCNC(=O)c3c(-c4ccccc4Cl)noc3C)c(=O)[nH]c2c1	0.98	-0.4
